# Compound activity: PubChem BioAssay, SRMLSC
# H5N1 CPE – MDCK cell protection from H5N1 avian flu; AID 740; cytopathic effect, luminescence, 72 h; active compounds read high; no value below 0 was filed and about half of the inactive calls have no number; reference of the scale not given here; inhibition, % at 50 µM; actives 0.07% (n = 96,000); in the data active means inhibition above about 25%
# Active calls of the source: *; i = inactive. Some of the compounds tested, so the mix of outcomes need not match the whole.
SMILES,H5N1 CPE
O=C(COC(=O)c1cccs1)c1ccc2c(c1)OCCO2,0.6
Cc1ccc(S(=O)(=O)c2c(N)n(CC3CCOC3)c3nc4ccccc4nc23)cc1 (configuration not stated),0.0
CCCCN(Cc1ccccc1)C(=O)c1cnc2n(c1=O)CCS2,0.1
O=C(c1sc2ccccc2c1Cl)N1CCC2(CC1)OCCO2,0.7
CCOC(=O)CNC(=O)c1c2c(nc3ccccc13)CCCC2,1.4
O=C(O)c1coc2ccccc12,i
CCOC(=O)C1=C(c2ccccc2)NC(SCC(=O)NC2CCCCC2)=C(C#N)C1c1ccco1 (configuration not stated),i
O=C(O)COc1cccc(NC(=O)C2CCCO2)c1 (configuration not stated),0.4
CCCCc1nc2ccccc2c(=O)n1-c1ccccc1O,i
COc1ccc(C)cc1S(=O)(=O)N1CCN(c2cccc(C(F)(F)F)c2)CC1,10.3
O=C(c1ccccc1)c1c[nH]c(C(=O)NCc2cccnc2)c1,1.3
CC(C)CCn1c(N)c(S(=O)(=O)c2cccs2)c2nc3ccccc3nc21,7.2
CCN(C(=O)CCN1C(=O)c2ccccc2C1=O)C1CCCCC1,i
COC(=O)c1ccc(N2CCCCC2)c(NS(=O)(=O)c2ccc(C)cc2)c1,3.0
O=C(CSc1nc2ccccc2s1)c1cc2ccccc2o1,i
Cc1ccc(NC(=O)CN2C(=O)CN=C(c3ccccc3)c3cc(Cl)ccc32)cc1,2.5
O=C(CN1C2=NCCCN2c2ccccc21)c1ccc(Br)s1,i
Nc1sc(-c2ccccc2)cc1C(=O)O,i
Cn1cccc1Cc1nnc(SCC(=O)Nc2ccccc2F)n1CCc1ccccc1,i
CCC1(CC)C(=O)N(Cc2ccccc2)C(=O)N(Cc2ccccc2)C1=O,0.4

# Entries above containing fluorine (two):
SMILES,H5N1 CPE
COc1ccc(C)cc1S(=O)(=O)N1CCN(c2cccc(C(F)(F)F)c2)CC1,10.3
Cn1cccc1Cc1nnc(SCC(=O)Nc2ccccc2F)n1CCc1ccccc1,i

# Next part
SMILES,H5N1 CPE
O=C1c2ccccc2C(Nc2ccc(Cl)cn2)N1Cc1ccccc1 (configuration not stated),i
CCC(O)(CCN1CCCCC1)c1ccccc1 (configuration not stated),i
COC(=O)c1ccc(C(c2c(N)n(Cc3ccccc3)c(=O)n(C)c2=O)N2CCOCC2)cc1 (configuration not stated),i
CCOC(=O)Nc1cc(OC)c(OC)cc1Cc1nccc2cc(OC)c(OC)cc12,i
O=C(c1ccccc1-c1nc(-c2ccccc2)no1)N1CCOCC1,0.3
O=C(CN1CCCCC1)NCCNC(=O)CN1CCCCC1,2.6
CCOC(=O)N1CCC(NC(=O)c2cc(S(=O)(=O)N3CCCC3)cn2C)CC1,0.4
COc1ccc(C)cc1-n1nnnc1SCC(=O)N1CCC(C(=O)Nc2nccs2)CC1,1.2
CC(C)(C)NC(=O)COC(=O)Cc1ccc(Cl)cc1,0.3
COc1cc(NC(=O)c2ccc(COCC(F)(F)F)cc2)cc(OC)c1OC,i
C=CC1=C(C(=O)O)N2C(=O)C(NC(=O)Cc3ccccc3)C2SC1 (configuration not stated),i
COc1ccccc1NC(=O)c1sc2nc(Cc3ccccc3)cc(C(F)(F)F)c2c1N,i
COc1cc(C)ccc1OCCCCN1CC(C)OC(C)C1 (configuration not stated),0.5
COc1ccc(C(OC(=O)c2ccco2)C(=O)NCc2ccco2)cc1 (configuration not stated),0.7
CCN(CC)c1ccc(C(=O)n2cnc3ccccc32)cc1,i
CCCOC(=O)c1cccc(NC(=O)C(C)(C)C)c1,2.5
CCOc1ccc(N(CC(=O)Nc2ccc(F)c(F)c2)S(=O)(=O)c2c(C)noc2C)cc1,i
COc1ccc(-c2nc(C#N)c(NCc3ccccc3Cl)o2)cc1,i
COCCN1C(=O)c2ccccc2C(C(=O)N2CCN(c3ccccc3)CC2)C1c1ccc(F)cc1 (configuration not stated),0.2
O=C(CSc1nnc(-c2ccco2)o1)NC1CCCCC1,i

# Compounds listed so far that contain a COOH group:
SMILES,H5N1 CPE
O=C(O)c1coc2ccccc12,i
O=C(O)COc1cccc(NC(=O)C2CCCO2)c1 (configuration not stated),0.4
Nc1sc(-c2ccccc2)cc1C(=O)O,i
C=CC1=C(C(=O)O)N2C(=O)C(NC(=O)Cc3ccccc3)C2SC1 (configuration not stated),i

# Other entries:
SMILES,H5N1 CPE
COc1cc(/C=C/C(=O)N2CCN(CC(O)COc3ccccc3)CC2)cc(OC)c1OC (configuration not stated),i
CN1CCN(c2ccc(Cl)cc2NC(=O)c2nn(-c3ccccc3)c(=O)c3ccccc23)CC1,i
COc1ccc(CCNC(=O)CSc2nnnn2Cc2ccc3c(c2)OCO3)cc1OC,i
Cc1ccccc1C(O)c1ccccn1 (configuration not stated),i
CCOc1cc(NC(=O)c2ccccn2)c(OCC)cc1NC(=O)CC(C)C,0.5
CCOc1ccc(C(=O)/C=C/c2cn(CN3CCN(C)CC3)c3ccccc23)cc1,i
CCOC(=O)CSc1nc(N)cc(=O)[nH]1,i
COC(=O)c1ccc(NC(=O)CSC2=Nc3ccccc3C3CC=NN23)cc1 (configuration not stated),1.9
CCCCCCN=CC1=C(O)CC(C)(C)CC1=O,i
CCc1nnc(NC(=O)CSc2nnc(-c3ccccc3NC(=O)c3ccccc3)o2)s1,1.2
CCOc1ccc(-c2nc(C)c(C(C)=O)n2O)cc1,i
COc1ccc(C2=NN(CN3C(=O)C(=O)c4ccccc43)C(c3ccc(C)cc3)C2)cc1 (configuration not stated),i
CC(C)NC(C(=O)Nc1cc(Cl)cc(Cl)c1)c1ccccc1 (configuration not stated),0.5
CCOC(=O)c1ccc(COC(=O)c2nonc2N)cc1,0.8
N#Cc1nc(Cc2ccccc2)oc1N1CCN(c2ccccc2)CC1,i
Cc1occc1-c1nc(-c2ccccn2)no1,1.5
CCC(=O)Nc1nc(CC(=O)Nc2ccccc2)cs1,i
COc1cccc(NC(=O)CSc2nnc(-c3cc(-c4ccccn4)nc4ccccc34)o2)c1,1.5
CCN(CC)C1CC(=O)N(c2cccc(C)c2)C1=O (configuration not stated),0.8
CCNS(=O)(=O)c1cc(S(C)(=O)=O)ccc1Cl,i
CCCCOc1cccc(C(=O)O)c1,i
CC(C(=O)c1ccccc1)n1cnc2ccccc2c1=O (configuration not stated),2.1
CCOC1(NC(=O)c2ccccc2)C(C)=CC(=O)C=C1C,i
CS(=O)(=O)Nc1ccc(C(=O)NC2CCCC2)cc1,i
CCCOc1ccc(-c2cnc(SCC(N)=O)nc2N)cc1,i
CCc1ccc(-c2nn(Cc3ccccc3)cc2/C=C/C(=O)O)cc1,0.2
Cc1ccc(-c2cc(-c3ccccc3O)nc(N/N=C/c3cccnc3)n2)cc1,1.1
O=C(NC1CC2CCCC(C1)N2C(=O)NC1CCCCC1)c1ccccc1 (configuration not stated),0.1
CCN(CC)CCCOC(=O)C1(c2ccccc2)CCCC1,i
Cc1nn(Cc2ccc([N+](=O)[O-])cc2)c(=O)n1-c1c(F)cccc1F,0.1
CCC1CCCCN1C(=O)Cn1c(C(=O)OC)cc2ccsc21 (configuration not stated),1.2
O=C(NCC1CCCO1)c1ccc2c(c1)OCO2 (configuration not stated),1.1
CCOc1ccc(S(=O)(=O)NCC2CCCO2)cc1 (configuration not stated),i
C=CCNc1nnc(SC2CC(=O)N(c3ccc(OC)cc3)C2=O)s1 (configuration not stated),2.6
COC(=O)CC/C(C)=N\Nc1ccc([N+](=O)[O-])cc1[N+](=O)[O-],i
CC1(C)CC(=O)C2=C(C1)N(Cc1ccco1)C(=O)C2(O)C(F)(F)F (configuration not stated),i
COc1ccccc1NC(=O)Cn1c(=O)oc2ccccc21,0.3
CC(=NCCc1ccccc1)C1=C(O)CCC1=O,i
CCC(NC(=O)c1ccccc1NC(=O)c1ccccc1)C(=O)O (configuration not stated),0.1
CC(C)(C)c1cc(NS(=O)(=O)c2ccc3c(c2)OCCO3)on1,0.7
CCn1ccc(C(=O)NC2=C(C#N)CCC2)n1,i
CC(=O)c1cccc(NC(=O)N2C3CCC2CC(O)(c2cccnc2)C3)c1 (configuration not stated),i
CC1(C)Cc2c(C#N)c(SCc3ccccc3)nc(N3CCOCC3)c2CO1,1.4
CCn1c(=O)c(C(=O)NCCCO)c(O)c2ccccc21,1.5
CCOC(=O)c1cnc2c(OC)cccc2c1N1CCN(c2ccccc2OC)CC1,i
O=C(Cc1ccccc1)Nc1nnc(-c2ccco2)s1,i
O=C(CSc1nc2ccccc2c(=O)n1Cc1ccco1)N1CCN(c2ccccc2)CC1,0.9
CCOC(=O)c1oc2cc(O)ccc2c(=O)c1-c1csc(C)n1,i
Cc1ccc(C2C(=O)N(C3CCCC3)CC(=O)N2CC2COc3ccccc3O2)cc1 (configuration not stated),1.8
Cc1cccc(OCc2nnc(SCC(=O)c3ccccc3)o2)c1,1.2
COc1ccc(N2C(=O)CC(NCc3ccncc3)C2=O)cc1 (configuration not stated),i
CCS(=O)(=O)c1ccc(S(=O)(=O)CC)s1,0.2
O=C(O)C1CCCN(S(=O)(=O)c2ccc(F)cc2)C1 (configuration not stated),0.5
Nc1nc(OCC(F)(F)F)cc(Oc2ccccc2F)n1,i
COc1ccc(OC)c(C2=NOC(C(=O)NCc3ccco3)C2)c1 (configuration not stated),0.8
Cc1ccc(S(=O)(=O)N/N=C\c2cn(-c3ccccc3)nc2-c2ccccc2)cc1,i
CCOc1ccccc1CN1CCN(S(C)(=O)=O)CC1,i
COc1ccc(NC(=O)N(Cc2ccc(C)cc2)Cc2cccnc2)c(OC)c1,i
CCOc1cc(C(=O)Nc2ccc(S(=O)(=O)N3CCOCC3)cc2)cc(OCC)c1OCC,0.3
O=C(CCN1CCC(c2ccccc2)C1)c1cccs1 (configuration not stated),0.5

# (listing goes on)
SMILES,H5N1 CPE
Cc1cc(C(=O)N/N=C2\CC(=O)CC(C)(C)C2)n[nH]1,i
CCN(CC)C(c1ccc(C)cc1)c1nnnn1C1CCCCC1 (configuration not stated),5.0
O=C(CSc1nnc(CNC(=O)c2c(F)cccc2Cl)o1)Nc1ccc2c(c1)OCCO2,i
COc1cccc(-c2csc(NC(=O)Oc3ccccc3)n2)c1,i
COc1ccc(NC2CC(=O)N(C)C2=O)cc1 (configuration not stated),i
CN(/N=C/c1ccncc1)C1=NS(=O)(=O)c2ccccc21,i
Cc1nc(C)c2c(=O)cc(-c3ccccc3)[nH]c2n1,i
CC(CCc1ccccc1)NC(=O)/C=C/c1ccccc1 (configuration not stated),0.2
CCCn1c(C2CC(=O)N(c3ccc(C)cc3)C2)nc2ccccc21 (configuration not stated),i
CCCC(C)C(=O)Nc1ccccc1C(=O)OCC (configuration not stated),i
Fc1ccc(OCCOCCNCC2CCCO2)cc1 (configuration not stated),i
CCOc1ccc(CNC(=O)CCn2c(=O)oc3ccccc32)cc1,i
CCOc1c2ccc(C(=O)NCc3ccc(C)cc3)cc2nn1CCOC,0.9
Cc1cccc(-n2ncc(C#N)c2N)c1,i
Cc1c(CN(C)C)c2c(n1Cc1ccccc1)C(=O)c1ccccc1-2,i
Cc1ccccc1CN(c1ccc(C(=O)Nc2cccnc2)cc1)S(C)(=O)=O,i
CS(=O)(=O)Nc1ccc(C(=O)NC2CC3CCC2C3)cc1 (configuration not stated),0.9
O=S(=O)(NC1CC1)c1ccc(S(=O)(=O)N2CCCc3ccccc32)cc1,2.8
C=CCn1c(SCCN2CCOCC2)nc2c1c(=O)[nH]c(=O)n2C,1.7
C=Cn1ccnc1P(=S)(c1cc(N(CC)CC)ns1)c1nccn1C=C,0.1

# 7 structures out of the list, ordered by SMILES length, low to high.
SMILES,H5N1 CPE
Fc1ccc(OCCOCCNCC2CCCO2)cc1 (configuration not stated),i
CCS(=O)(=O)c1ccc(S(=O)(=O)CC)s1,0.2
CCn1c(=O)c(C(=O)NCCCO)c(O)c2ccccc21,1.5
Cc1cccc(OCc2nnc(SCC(=O)c3ccccc3)o2)c1,1.2
CCC(NC(=O)c1ccccc1NC(=O)c1ccccc1)C(=O)O (configuration not stated),0.1
O=C(CSc1nc2ccccc2c(=O)n1Cc1ccco1)N1CCN(c2ccccc2)CC1,0.9
CN1CCN(c2ccc(Cl)cc2NC(=O)c2nn(-c3ccccc3)c(=O)c3ccccc23)CC1,i

# Remaining list, next part:
SMILES,H5N1 CPE
CC(=N/O)/C(=N\O)c1ccc(C)o1,0.9
Cc1cc(C(=O)OCCO)c(C#N)c(N)n1,i
COc1cccc(NC(=O)c2ccc(S(=O)(=O)N3CCCCC3)cc2)c1,1.7
CC(=O)NC1C(=O)N(CC(C)C)c2ccccc21 (configuration not stated),0.2
COc1ccc(OC)c(C(=O)CN2CCN(S(=O)(=O)c3ccc(Br)cc3)CC2)c1,0.9
Cn1c2ccc(F)cc2c2ncn(CCN3CCOCC3)c(=O)c21,0.4
Cc1cc(C)nc(-n2nc(C)cc2NC(=O)CNC(C)c2ccccc2)n1 (configuration not stated),0.8
CC(C)Cn1[nH]c2c3c(ccc2c1=O)C(=O)c1ccccc1C3=O,i
O=C(Nc1ccccc1)C1C2CCC3C(CCC21)C3(Cl)Cl (configuration not stated),2.0
O=C(CC1SC(=O)N(Cc2cccc3ccccc23)C1=O)Nc1nccs1 (configuration not stated),4.5
COc1ccc(CNC(=O)C(C)N(Cc2ccco2)C(=O)c2snc(C(N)=O)c2N)cc1 (configuration not stated),2.0
Cc1c(C(=O)NCc2ccccn2)oc2ccc(S(=O)(=O)N3CCOCC3)cc12,0.2
Fc1ccc(C(CCCn2nnc(-c3cccnc3)n2)c2ccc(F)cc2)cc1,0.1
O=[N+]([O-])c1cc(S(=O)(=O)Nc2ccccc2)ccc1-n1nnc2ccccc21,i
c1ccc(-c2nnc3sc(Cc4cccs4)nn23)cc1,0.4
